Menin MLL FP FL – inhibitors of human menin-MLL interaction, wild-type MLL peptide | Fluorescence polarization, fluorescein-MLL peptide displacement from menin | FP activity change, % at 61.4 µM | 290,000 tested, under 10 active | AID 1766; inconclusive = falling polarisation curve, or a change in total fluorescence; inactive = total fluorescence flat and polarisation flat or rising; no compound was filed as active; the % refers to the polarisation; negative = inhibition;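 further: % of control where 0% means no effect; inhibitors lower the polarisation; unlabelled MLL peptide was the positive control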
ClpP mod – qHTS Assay for Activators of ClpP; ATP-dependent Clp protease proteolytic subunit (Bacillus subtilis (strain 168)), P80244; Potency, µM (doses to about 57.5 µM), without a hit: at the top dose activity change, negative = active; hit rate 1.9% among 340,000; purified B. subtilis ClpP, FRET peptide cleavage, 20 min; active = well fitted falling curve with a large enough effect; inconclusive = small, poorly fitted or top-dose-only effect; inactive = no such curve, though single readings can be large or run the other way; further: potency means the concentration at half of the fitted maximal effect; the source files actives as falling curves though it sought activators and does not explain the sign; nearly all actives have a fitted effect of over 65% in size; many hits overshoot -100%
Target sequence (P80244 whole entry, looked up): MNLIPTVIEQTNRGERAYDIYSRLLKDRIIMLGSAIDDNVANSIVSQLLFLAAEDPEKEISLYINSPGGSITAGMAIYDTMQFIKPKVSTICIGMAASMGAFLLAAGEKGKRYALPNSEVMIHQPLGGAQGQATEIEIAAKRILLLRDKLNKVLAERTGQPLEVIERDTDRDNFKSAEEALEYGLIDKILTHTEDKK
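FRET quenching reversal measured ClpP activation: 10 microg/mL B. subtilis ClpP at pH 8 with the FRET-FV decapeptide, read at 430 nm after 320 nm excitation. The 20-min minus 0-min signal was scaled between DMSO/no-enzyme wells and ADEP (5.8 microM final).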
TRPML1 blocker – inhibitors of human TRPML1 channel. Q9GZU1. TRPML1-inducible cells, Ca2+ dye fluorescence, FDSS; stronger effect = lower value; inhibition of EC80 agonist-evoked calcium signal. hit rate 0.02% among 390,000. activity change, negative = inhibition, % (no concentration beside the values); in the data active means activity change below about -50%; inconclusive means about -30% to -50%; inactive means above about -30%;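 further: stimulus is agonist 54-4 at its EC80 concentration; on the % scale 0 is the no-effect control and ±100 the full control effect; compound concentration not given in the record; the text of the record puts the active cut at -80%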
Target sequence (Q9GZU1 whole entry, looked up): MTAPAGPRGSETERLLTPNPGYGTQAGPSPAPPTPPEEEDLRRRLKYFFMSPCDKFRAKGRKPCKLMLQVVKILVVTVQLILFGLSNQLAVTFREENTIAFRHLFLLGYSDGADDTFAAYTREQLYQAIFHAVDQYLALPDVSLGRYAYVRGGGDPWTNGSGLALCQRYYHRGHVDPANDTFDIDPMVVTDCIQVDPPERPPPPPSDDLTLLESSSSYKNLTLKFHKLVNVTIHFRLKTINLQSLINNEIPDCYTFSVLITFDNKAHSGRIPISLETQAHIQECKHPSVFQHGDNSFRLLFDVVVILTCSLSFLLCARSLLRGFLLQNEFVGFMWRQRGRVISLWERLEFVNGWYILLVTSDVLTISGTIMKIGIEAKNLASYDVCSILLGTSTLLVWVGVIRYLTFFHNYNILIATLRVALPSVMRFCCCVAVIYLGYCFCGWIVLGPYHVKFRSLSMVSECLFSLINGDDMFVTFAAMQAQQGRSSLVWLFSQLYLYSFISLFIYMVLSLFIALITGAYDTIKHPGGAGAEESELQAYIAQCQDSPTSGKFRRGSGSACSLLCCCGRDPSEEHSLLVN
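Tet-induced TRPML1-DL cells loaded with Ca8 no-wash calcium dye were read kinetically on FDSS. Compound addition was followed by EC80 agonist 54-4 (4 uM final); inhibition was read over 110 s.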
gsp antagonist – antagonists of gsp mutant (McCune-Albright syndrome); AID 624288; hit rate 0.4% among 340,000; Potency, µM (titrated, usually from 76.9 µM), without a hit: top-dose activity change, negative = inhibition, most hits filed as inhibitors; gsp-mutant cells, cAMP HTRF, 30 min; control for the full effect not named in the record; active = falling curve of any shape with a large fitted effect; inconclusive = falling curve, mostly with a smaller effect; inactive = flat or rising curve; cell line not stated here;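 further: intracellular cAMP measured with PDE inhibitor Ro 20-1724 present during compound exposure; potency means the concentration at half of the fitted maximal effect; on the % scale 0 is the no-effect control and ±100 the full control effect; nearly all actives have a fitted effect of over 65% in size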
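G418-selected cells were plated in DMEM/10% FBS for 16-24 h at 37C, then treated with compounds plus the PDE inhibitor […] (300 uM solution added) for 30 min at 37C. Intracellular cAMP was measured by HTRF after 30 min lysis at room temperature.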
TRPML1 agonist – agonists of human TRPML1 channel; hit rate 0.12% among 410,000; TRPML1-expressing cells, Ca2+ dye fluorescence, FDSS; host cell line not named in the record; reference of the full effect not given here; activation, % (concentration not given with the values); AID 624414; in the data active = activation above about 50%; inconclusive = about 30% to 50%; inactive = below about 30%; further: 0% is about no effect; the text of the record puts the active cut at 80%
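Tetracycline-induced TRPML1-DL cells are seeded and incubated overnight before loading with a no-wash Ca2+ dye and quencher. Agonist activity is taken from the 110 s fluorescence read following compound pin-transfer on an FDSS, before EC80 54-4 challenge.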
gsp ag – gsp mutant agonism | gsp mutant cells, cAMP HTRF, 30 min; control for the full effect not named in the record | Potency, µM (top dose mostly 76.9 µM), inactives show at the top dose activation (cAMP increase), usual class: activators | hit rate 0.13% among 340,000; active = well fitted activation curve with a large enough effect; inconclusive = small, poorly fitted or top-dose-only effect, or another doubt; inactive = no such curve, though single readings can be large or run the other way; cell line not stated here;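 further: phosphodiesterase inhibitor Ro 20-1724 added with compounds to block cAMP breakdown; potency means the concentration at half of the fitted maximal effect; nearly all actives have a fitted effect of over 60% in size; about a fifth of the inactives were tested at one dose only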
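Cells in DMEM/10% FBS with G418 were pretreated with compounds in DMSO plus […] (300 uM stock) for 30 min at 37C. cAMP was measured by HTRF (cAMP-d2 plus anti-cAMP antibody-K) after 30 min at room temperature.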
An asterisk follows results filed as active; ? = inconclusive; / = no result given; & = joins results of further samples; [ ] = another dose, or the depositor's remark.

Fields – Menin MLL FP FL	TRPML1 blocker	gsp antagonist	TRPML1 agonist	ClpP mod	gsp ag
CN1CCN(C(=O)c2ccccc2-c2nc(-c3ccccc3)no2)CC1
  5.0	-25	-1%	0.9	-1.8%	13%
CCOc1ccccc1CNC(=O)CN1C(=O)CCn2nc(-c3cn(C)c4ccccc34)cc21
  /	21	/	0.1	-6.5%	/
CCC(C)(C)NC(=O)C(c1ccccc1F)N(Cc1ccco1)C(=O)Cn1nnc2ccccc21 (stereo not drawn)
  5.8	53	-6%	-1.3	?	15%
Cc1ccc(C(C2=C(O)CC(C)(C)CC2=O)C2C(=O)CC(C)(C)CC2=O)o1 (stereo not drawn)
  1.5	44	?	-0.9	0.8%	-22%
CC(=O)c1cccc(OCc2cc(C(=O)N(C)CCc3cnn(C)c3)no2)c1
  /	6	2%	1.9	-3.3%	-16%
CCOC(=O)c1ccc(NC(=O)CSc2nc(C)nc3c2c(=O)n(C)c(=O)n3C)cc1
  2.3	6	-2%	0.5	-1.6%	-14%
COc1ccc(NS(=O)(=O)c2ccc(OC)c(NC(=O)CCC3CCCCC3)c2)cc1
  4.1	-1	-4%	1.3	3.0%	-33%[inhibitor]
COC(=O)c1ccc(NC(=S)NCCCN2CCCC2=O)cc1
  -0.9	-3	-1%	-0.8	-0.4%	-16%
Cc1ccccc1OCC(=O)N1N=C(c2cccnc2)CC1(O)C(F)(F)F (stereo not drawn)
  -0.3	9	-4%	0.2	-2.5%	-18%
CCc1ccc(C(=O)C(C)OC(=O)CNS(=O)(=O)c2ccc(C)cc2)cc1 (stereo not drawn)
  /	-11	-32%	1.0	1.1%	-6%
O=C1c2ccccc2S(=O)(=O)N1Cc1ccccc1[N+](=O)[O-]
  -0.7	7	5%	-1.1	1.5%	-3%
COc1ccc(C(C)(C)C)cc1NC(=O)CCCN1C(=O)CN(C)C1=O
  /	14	9%	-0.3	3.7%	6%
Cc1ccc(-n2c(SCC(=O)NCc3ccco3)nc3c(sc4ccccc43)c2=O)cc1
  14	34	-11%	1.8	13%	-2%
COc1ccc(S(=O)(=O)N2CCN(Cc3ccc(OC)c(OC)c3)CC2)cc1
  -1.7	-16	4%	-0.3	-1.7%	4%[15.4 µM]
O=[N+]([O-])c1ccc(N2CCN(c3ccccc3F)CC2)nc1
  4.0	24	-2%	-1.3	0.9%	0%[15.4 µM]
CN1CCN(CCCNC(=O)Cn2ncc3c4ccccc4n(C)c3c2=O)CC1
  -1.8	17	9%	-0.4	4.9%	-21%
Cc1ncn(-c2ccc(C(=O)Oc3ccccc3)cn2)n1
  -1.1	10	0%	0.7	/	2%[15.4 µM]
COc1cc(OC)cc(N2C(=O)N(Cc3ccc(C(C)(C)C)cc3)c3ccccc3S2(=O)=O)c1
  /	3	/	0.2	-1.3%	/
COc1ccc(CCC(=O)Nc2nc3c(s2)CN(C)CC3)cc1OC
  0.5	-6	14%	0.1	1.7%	17%
Cc1coc2c1c(C)cc1oc(=O)c(CC(=O)NCCc3ccc(Cl)cc3)c(C)c12
  /	17	/	-0.6	-23%	/
O=C(Nc1ccc(F)c(F)c1)c1ccccc1-c1ccccc1
  4.5	11	-4%	2.3	0.4%	-50%[inhibitor]
COc1cc2c(cc1OC)CN(C(=O)c1cc(S(=O)(=O)N3CCOCC3)ccc1C)CC2
  /	11	3%	-0.1	-3.3%	-31%[inhibitor]
COc1ccc(C2c3c(n(C)c4ccccc34)C(=O)N2CC(=O)Nc2cccc(Cl)c2)cc1 (stereo not drawn)
  /	-10	/	1.8	16µM*	/
c1ccc(C2(CN3CCNC[C@@H]3CC3CCCCC3)CC2)cc1
  /	-3	15%	-0.3	-1.2%	30%
CCc1ccccc1Nc1nc(N)nc(COC(=O)CCNS(=O)(=O)c2ccccc2)n1
  /	5	-14%	0.2	-2.7%	10%[15.4 µM]
COc1ccc(CCNC(=O)CCn2c(=O)c3cccn3c3cccnc32)c(OC)c1OC
  /	-6	/	0.8	-24%	/
O=C(O)CCc1ccc(-c2cccs2)n1NC(=O)c1cccs1
  4.9	-1	-8%	1.4	/	0%
CC(C)(C)OC(=O)N1CCN(c2ccc(CNC(=O)c3ccc(Cl)cc3)cc2)CC1
  2.6	18	?	2.7	-1.7%	16%
O=C(c1ccc2c(c1)OCO2)N1CCOCC1
  -0.6	-2	1%	0.6	-0.3%	?
CC(=O)Nc1ccc2nc(-c3cccnc3)[nH]c2c1
  3.7	-4	-6%	-1.3	-23%	0%

Arranged by heavy-atom count (lowest first): 3 of the compounds above.
Fields – Menin MLL FP FL	TRPML1 blocker	gsp antagonist	TRPML1 agonist	ClpP mod	gsp ag
O=C(O)CCc1ccc(-c2cccs2)n1NC(=O)c1cccs1
  4.9	-1	-8%	1.4	/	0%
CC(C)(C)OC(=O)N1CCN(c2ccc(CNC(=O)c3ccc(Cl)cc3)cc2)CC1
  2.6	18	?	2.7	-1.7%	16%
Cc1ccc(-n2c(SCC(=O)NCc3ccco3)nc3c(sc4ccccc43)c2=O)cc1
  14	34	-11%	1.8	13%	-2%

The list goes on:
Fields – Menin MLL FP FL	TRPML1 blocker	gsp antagonist	TRPML1 agonist	ClpP mod	gsp ag
COc1ccc(/C=C2\CC/C(=C\c3ccc(OC)cc3OC)C2=O)c(OC)c1
  ?	-12	4%	?	-0.4%	-10%
CCc1ccccc1NCC(=O)Nc1ccccc1C(=O)OC
  -2.4	-5	-11%	1.7	?	-13%
O=[N+]([O-])c1ccc(C=NNc2ccc(S(=O)(=O)O)cc2)cc1
  /	39	7%	0.4	/	1%
CSc1nsc(SCC(=O)Nc2nc3ccc(C)cc3s2)n1
  0.2	5	6%	0.2	-2.4%	5%
O=C(NCc1ccccc1Cl)c1ccc(S(=O)(=O)N2CCCC2)cc1
  /	-11	2%	-0.5	0.7%	2%
CCn1cc(C(=O)O)c(=O)c2cc(F)c(N3CCN(C(=S)NC(=O)c4ccccc4F)CC3)cc21
  -1.0	35	13%	-0.2	/	-20%[15.4 µM]
Cc1nc(/N=C(\N)NC(=O)N2c3ccccc3Sc3ccccc32)nc2ccccc12
  4.5	32	-4%	1.1	-3.4%	26%
CC(=O)c1ccc(NC(=O)CC2Nc3cccc4cccc(c34)NC2=O)cc1 (stereo not drawn)
  -0.9	11&-1	?	2.0&-0.1	-1.5%&-5.4%	-30%
CCCOc1ccc(-c2nc(C#N)c(NCCCn3ccnc3)o2)cc1
  3.3	12	3%	1.3	-26%	12%
COc1ccc(CCNC(=O)CCc2ccccc2)cc1OC
  /	-7	3%	2.0	/	-10%[15.4 µM]
CCCCn1nc(C(=O)NCC2COc3ccccc3O2)c2ccccc2c1=O (stereo not drawn)
  /	6	-8%	5.0	-1.5%	-14%
Cc1cc(C(=O)CN2C(=O)NC3(CCCCC3C)C2=O)c(C)n1Cc1cccs1 (stereo not drawn)
  1.7	8	7%	0.0	-12%	-52%
CSc1c(CC(=O)Nc2ccccc2)n(C)c2ccccc12
  1.2	-7	-9%	-0.8	36%	-8%
S=C(NCCc1ccccc1)Nc1cnc2ccccc2c1
  -2.5	0	8%	1.4	-4.2%	40%
O=C(c1cc(COc2ccc(F)cc2Cl)on1)N1CCN(c2cnccn2)CC1
  0.1	-9	0%	1.6	-12%	-13%
Cn1cccc1C(=O)C(=O)Nc1ccc(F)c(F)c1
  -1.2	-5	-8%	-0.9	0.2%	-17%
COC(=O)/C(=C\Nc1ccccc1)NC(=O)c1ccc(Cl)cc1Cl
  0.5	14	-4%	0.3	-2.1%	-3%
N#Cc1ccccc1Sc1ccccc1C(=O)NCC(c1ccco1)N1CCCC1 (stereo not drawn)
  /	-3	-5%	0.1	0.8%	-16%[15.4 µM]
CCc1ccccc1N(C)C(=O)c1nn(-c2ccc(OC)cc2)c(=O)c2c1c1ccccc1n2C
  /	24	/	4.5	-22%	/
Cc1nn(C)c2c1c(-c1ccccc1)cc(=O)n2Cc1ccccc1C#N
  /	45	/	3.0	?	/
CCC1(C)Cc2ccccc2-c2nc(NCCO)n(-c3ccc(C)cc3)c(=O)c21 (stereo not drawn)
  5.5	13	4%	4.2	48%	-13%
COc1cccc(/C=C/c2nc(C#N)c(NCCN(C)C)o2)c1
  /	-9	/	-0.2	3.9%	/
O=C(Nc1ccc2c(c1)Cc1ccccc1-2)c1ccncc1
  8.8	6	9%	-1.0	10µM*	6%[15.4 µM]
CCOc1ccc(N(C(=O)c2snc(C(N)=O)c2N)C(C(=O)NCC2CCCO2)c2ccco2)cc1 (stereo not drawn)
  0.9	6	2%	1.1	/	-28%
CCN(CC)C(=O)Oc1c(Cl)cc(Cl)c2cccnc12
  0.0	-2	-4%	?	/	13%
CCOC(=O)c1cc(-c2ccc(F)cc2)n(CCC(=O)NC2CCC(C)CC2)c1C (stereo not drawn)
  /	-12	/	-0.1	3.3%	/
CC(=O)c1cccc(N2C(=NC(=O)C3CC3)SC3CS(=O)(=O)CC32)c1 (stereo not drawn)
  1.7	-7	13%	0.4	-1.6%	-4%
CCCCC[C@H](O)/C=C/[C@@H]1[C@@H](CCCCCCC(=O)O)[C@@H](O)C[C@H]1O
  0.5&0.7	-2	-7%	-0.3	-1.1%	/
COc1ccc(/C=N/NC(=O)Cc2n[nH]c(=O)[nH]c2=O)cc1
  4.0	11	6%	1.2	/	14%[15.4 µM]
CCC(CO)Oc1cc(NCc2ccc(C)c(C)c2)c2ncn(C(C)C)c2c1 (stereo not drawn)
  /	-7	?	-0.4	-3.1%	/
OCC[C@@H]1C[C@H](O)[C@@H](O)[C@]2(OCCc3cc(C(F)(F)F)ccc32)O1
  /	0	/	0.0	-0.5%	-7%
O=C(O)c1ccccc1C1c2ccccc2Oc2ccccc21
  /	-3	0%	-1.2	/	1%
C=CC[C@@H](CC(=O)N[C@@H](CO)Cc1ccccc1)C(=O)NCCOC(=O)[C@@H](CC=C)Cc1ccc(F)cc1
  /	1	0%	-0.2	2.0%	/
COc1cc(OC)cc(C(=O)NCCSC2CCCCC2)c1
  -1.1	-13	0%	1.4	/	0%
COc1ccc(Cn2nnc3c(=O)[nH]c(C4CCCN(C(=O)c5ccccc5Cl)C4)nc32)cc1OC (stereo not drawn)
  /	6	/	3.1	-1.3%	/
CN1CCN(CCC(=O)Nc2ccc(OCc3ccccc3)cc2)CC1
  3.0	-15	6%	-0.8	-1.5%	-26%
Fc1cc(Br)ccc1Nc1nc2ccccc2n2nnnc12
  -1.3	1	-8%	-0.2	-23%	40%
O=C(O)c1ccc(N2CCN(Cc3ccc4c(c3)OCO4)CC2)c([N+](=O)[O-])c1
  -1.8	0	-7%	-0.4	/	-25%

Individual results from the results shown.
ClpP mod with COc1ccc(Cn2nnc3c(=O)[nH]c(C4CCCN(C(=O)c5ccccc5Cl)C4)nc32)cc1OC (stereo not drawn) : -1.3%
Menin MLL FP FL with CN1CCN(CCC(=O)Nc2ccc(OCc3ccccc3)cc2)CC1 : 3.0
TRPML1 blocker with OCC[C@@H]1C[C@H](O)[C@@H](O)[C@]2(OCCc3cc(C(F)(F)F)ccc32)O1 : 0

Screens from PubChem.
